Bioassay records (PubChem BioAssay)
MLL AF4-AF9 inh = blocks AF4 peptide binding to human AF9; P42568; AlphaScreen, biotin-AF4 peptide binding to FLAG-AF9; inhibition, % at 10 µM; actives 0.47% (n = 350,000); AID 651704;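 active = every replicate reaching a set inhibition limit, whatever the replicate mean, cut at about 25% in these data; inconclusive = mean inhibition reaches that limit but some replicates miss it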;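 also: 0% = plate neutral control median and 100% = total signal loss; the record names both 10 and 1 µM as test concentration; the first replicate is given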
Target sequence (P42568 whole entry, looked up): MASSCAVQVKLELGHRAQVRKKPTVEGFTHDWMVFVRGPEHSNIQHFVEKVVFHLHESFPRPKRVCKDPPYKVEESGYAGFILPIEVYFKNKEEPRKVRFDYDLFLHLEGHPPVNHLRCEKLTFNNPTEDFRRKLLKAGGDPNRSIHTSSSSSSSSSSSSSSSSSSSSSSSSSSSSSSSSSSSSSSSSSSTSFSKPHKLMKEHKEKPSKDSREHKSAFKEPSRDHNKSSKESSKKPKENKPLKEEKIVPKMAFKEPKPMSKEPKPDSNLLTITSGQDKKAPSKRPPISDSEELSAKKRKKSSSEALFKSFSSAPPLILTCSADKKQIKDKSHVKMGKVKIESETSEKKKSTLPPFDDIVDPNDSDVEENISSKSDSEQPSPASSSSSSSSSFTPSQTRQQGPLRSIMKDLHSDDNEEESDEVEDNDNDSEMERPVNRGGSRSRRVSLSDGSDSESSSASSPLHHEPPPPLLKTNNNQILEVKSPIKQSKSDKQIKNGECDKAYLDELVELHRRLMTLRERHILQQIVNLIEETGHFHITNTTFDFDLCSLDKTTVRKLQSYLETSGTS
FGF22 binding = shifts melting point of recombinant human FGF22; recombinant FGF22 thermal shift, SYPRO orange fluorescence; percent of sucrose octasulfate shift, DMSO zero; calls only at 9.99 µM; AID 651658; actives 1.5% (n = 340,000); Q9HCT0;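 active = melting point raised past a set limit in the mean and every replicate; inconclusive = no clear call; three in four hits are not shown here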
Target sequence (Q9HCT0 whole entry, looked up): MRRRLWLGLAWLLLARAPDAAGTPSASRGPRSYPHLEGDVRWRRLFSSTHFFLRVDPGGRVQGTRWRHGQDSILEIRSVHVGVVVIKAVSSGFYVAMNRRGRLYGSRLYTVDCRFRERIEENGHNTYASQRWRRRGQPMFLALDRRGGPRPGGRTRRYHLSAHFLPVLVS
Ecoli rRNA inh = inhibitors of bacterial rRNA selective over humanized ribosomes | E. coli WT GFP vs humanized-ribosome RFP mutants, fluorescence, 24 h; active compounds read low; DMSO median 0, no signal -100 | GFP signal change (wild-type ribosome), % (no concentration beside the values) | actives 1.6% (n = 350,000) | AID 720706;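 active = significant combined selectivity score with lowered wild-type GFP, culture density cut under 30%, mutant RFP and density less affected; inactive = any of these conditions unmet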; also: one replicate is shown; some compounds called inactive have numbers as strong as hits
Ecoli rRNA inh OD600 = second read-out of Ecoli rRNA inh, no call of its own (marks repeat the call); OD600 change, %; measured here: OD600 growth;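 optical density of the mix in the first replicate; 0 = DMSO median and -100 = no signal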
Ecoli rRNA inh RFP = recorded beside Ecoli rRNA inh, whose call it bears; RFP signal change, %; measured here: RFP humanized mutant strains;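 first replicate; 0 = DMSO median and -100 = no signal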
* = called active by the depositor; i = inactive; ? = inconclusive; + = active, no number; & = joins results of further samples. Not all compounds are listed (hit frequency here may not be typical).

The line under a structure holds: Ecoli rRNA inh OD600, MLL AF4-AF9 inh, FGF22 binding, Ecoli rRNA inh, Ecoli rRNA inh RFP
N#C[C@H]1[C@@H](c2ccccc2-c2ccccc2)[C@H](CO)N1C(=O)Cc1ccncc1
 : 16, -0.9, i, 2, -0.7
CC(=O)Nc1ccc2c(c1)C(=O)N(C)[C@H]1CC[C@H](CC(=O)Nc3cn(C)nc3C)O[C@@H]1CO2
 : 7, -2.1, i, 4, -4.3
CCc1nc2c(OCc3ccc(OC)cc3)cccn2c1N(C)C(=O)C(C)C
 : -9, -1.9, i, -4, 2.0
COc1cccc(S(=O)(=O)N[C@H]2CC[C@@H](CCn3cc(-c4ccc(F)cc4)nn3)O[C@@H]2CO)c1
 : -3, 0.2, i, -6, 0.0
CO[C@H]1CN(C)C(=O)c2cc(NC(=O)c3cc(C)on3)ccc2OC[C@@H](C)N(CC2CC2)C[C@@H]1C
 : 3, -1.8, i, 1, 1.2
CCN(C)C1CN(Cc2cn(Cc3ccccc3)nn2)S(=O)(=O)C1 (stereo not given)
 : 15, -1.8, i, 9, -4.5
COc1cccc(S(=O)(=O)N[C@H]2CC[C@@H](CCNC(=O)Cc3ccncc3)O[C@H]2CO)c1
 : -3, 0.8, i, 1, -3.1
CN(Cc1ccccc1)C(=O)c1ccc(Nc2nc(C(N)Cc3ccccc3)cs2)nc1 (stereo not given)
 : -78, 15, i, -61, -23
O=C([C@H]1N[C@H]2c3ccc(/C=C/c4ccccc4)c(=O)n3C[C@H]2[C@@H]1CO)N1CCCCC1
 : -3, -5.0, i, -2, -0.9
Cc1ccc(S(=O)(=O)NC(=O)C2(C)CCN2C(=O)CC2CCCC2)cc1 (stereo not given)
 : 14, -1.0, i, 4, -0.5
COc1ccc(S(=O)(=O)N(C)C[C@@H]2Oc3ccc(NS(=O)(=O)c4c(C)noc4C)cc3CC(=O)N([C@@H](C)CO)C[C@H]2C)cc1
 : -12, 0.5, i, -3, 0.2
C[C@@H]1CCCCO[C@@H](CN(C)S(C)(=O)=O)[C@H](C)CN([C@H](C)CO)C(=O)c2cc(NC(=O)C3CCCCC3)ccc2O1
 : 3, 5.6, i, 1, -0.8
C[C@H](CO)N1C[C@H](C)[C@H](CN(C)S(=O)(=O)c2cn(C)cn2)Oc2c(NC(=O)NC3CCCCC3)cccc2C1=O
 : -8, -3.8, i, -2, -2.3
C[C@@H]1CCCCO[C@@H](CN(C)S(=O)(=O)c2cn(C)cn2)[C@@H](C)CN([C@@H](C)CO)C(=O)c2cc(NC(=O)c3ccccc3)ccc2O1
 : -3, -5.9, i, -2, -4.6
C[C@H]1CN([C@@H](C)CO)C(=O)c2cccc(NC(=O)CCCCCC(=O)Nc3ccccc3N)c2O[C@@H]1CN(C)Cc1ccc2c(c1)OCO2
 : -7, -2.2, i, -12, 2.7

4 structures out of the list, arranged by SMILES length, highest first:
The line under a structure holds: Ecoli rRNA inh OD600, MLL AF4-AF9 inh, FGF22 binding, Ecoli rRNA inh, Ecoli rRNA inh RFP
COc1cccc(S(=O)(=O)N[C@H]2CC[C@@H](CCn3cc(-c4ccc(F)cc4)nn3)O[C@@H]2CO)c1
 : -3, 0.2, i, -6, 0.0
O=C([C@H]1N[C@H]2c3ccc(/C=C/c4ccccc4)c(=O)n3C[C@H]2[C@@H]1CO)N1CCCCC1
 : -3, -5.0, i, -2, -0.9
N#C[C@H]1[C@@H](c2ccccc2-c2ccccc2)[C@H](CO)N1C(=O)Cc1ccncc1
 : 16, -0.9, i, 2, -0.7
Cc1ccc(S(=O)(=O)NC(=O)C2(C)CCN2C(=O)CC2CCCC2)cc1 (stereo not given)
 : 14, -1.0, i, 4, -0.5

(more compounds)
The line under a structure holds: Ecoli rRNA inh OD600, MLL AF4-AF9 inh, FGF22 binding, Ecoli rRNA inh, Ecoli rRNA inh RFP
C[C@@H]1CN([C@@H](C)CO)C(=O)c2cccc(NS(C)(=O)=O)c2O[C@@H]1CN(C)C(=O)Nc1cccc2ccccc12
 : -2, -2.6, i, -1, -1.9
CO[C@H]1CN(C)C(=O)c2ccc(NC(=O)Nc3ccccc3F)cc2OC[C@@H](C)N(C)C[C@@H]1C
 : 0, 1.1, i, 0, 0.5
CCOc1ccc(CCN2C(=S)N([C@@H](Cc3ccc(O)cc3)CN3CCC[C@@H]3CN3C(=S)NC[C@@H]3CC(C)C)C[C@@H]2Cc2ccccc2)cc1
 : 4, -13, i, 10, 5.5
Cc1ccc(S(=O)(=O)Nc2ccc3c(c2)C(=O)N([C@@H](C)CO)C[C@@H](C)[C@@H](CN(C)CC2CC2)OCCCC[C@@H](C)O3)cc1
 : 15&-3, 3.1&10, i, 7&2, 0.0&-0.2
C[C@H](CO)N1C[C@H](C)[C@@H](CN(C)Cc2ccc(C(F)(F)F)cc2)Oc2ccc(NC(=O)CCC(F)(F)F)cc2CC1=O
 : -17, 0.8, i, -3, 22
C[C@H]1CN([C@@H](C)CO)C(=O)c2cccc(NS(=O)(=O)c3ccccc3)c2O[C@H]1CN(C)S(=O)(=O)c1ccccc1
 : 11, 1.6, i, -1, 3.0
COc1cccc(NC(=S)NC2CC(C)CC(C)(C)C2)c1 (stereo not given)
 : -78, 0.4, i, -46, -15
CCCCN(CCCC)Cc1cc(=O)oc2cc(C)c(Cl)cc12
 : -26, -0.5, i, -9, 7.5
CCCN(C)C[C@H]1OCCCC[C@@H](C)Oc2ccc(NC(=O)C3CCCCC3)cc2C(=O)N([C@@H](C)CO)C[C@H]1C
 : -4, 0.4, i, 0, 2.2
O=S(=O)(c1ccc(F)cc1)N1CC[C@@H]2[C@H](CO)Nc3ccc(-c4ccccc4F)cc3[C@@H]21
 : -30, 2.0, i, 15, 18
CC(C)[C@@H]1Cc2[nH][nH]c(=O)c2[C@H](CCc2ccccc2)O1
 : -79, 2.6, i, -53, -17
COc1ccc2c3c(n(C)c2c1)[C@@H](CO)N(CC1CC1)CC31CCN(C(=O)Nc2ccccc2)CC1
 : 4, ?, i, 0, 2.8
CCC(=O)Nc1ccc2c(c1)OC[C@H](C)N(Cc1ccccc1)C[C@@H](C)[C@@H](OC)CN(C)C2=O
 : 5, -2.8, i, -6, 1.7
CCc1ccc(CN(C)C(=O)c2cccc(S(=O)(=O)Nc3ccccc3OC)c2)cc1
 : -24, -3.7, i, -16, -0.8
CO[C@@H]1CN(C)C(=O)c2ccc(NS(=O)(=O)c3cn(C)cn3)cc2OC[C@@H](C)N(Cc2cccc(Cl)c2)C[C@H]1C
 : -4, 4.1, i, -8, 8.3
C[C@H]1CN([C@@H](C)CO)S(=O)(=O)c2ccc(/C=C/c3ccccc3)cc2O[C@H]1CN(C)C(=O)c1ccncc1
 : -16, 16, i, -6, 9.4
CCN(CC)c1ncnc2c1ncn2[C@H]1CN(Cc2cccnc2)C[C@@H](CO)O1
 : 19, -9.1, i, 11, 0.5
O=C1NC[C@@H](CCCCN2C[C@H](Cc3ccccc3)N(Cc3ccccc3)C(=O)C2=O)N(CC2CCCCC2)C1=O
 : -8, 2.1, i, -10, -1.7
COc1ccc(-c2cnc3c(NC=O)cc(-c4ccc(C(=O)N5CCOCC5)cc4)cn23)cc1OC
 : 14, -2.9, i, 6, 1.1
O=C1C(=O)C(c2ccccc2)C(=O)C1c1ccccc1 (stereo not given)
 : 13, -3.2, +, 5, -1.7
COCCn1c(C)cc(C(=O)CN2C(=O)C(=O)N(CCC3=CCCCC3)C2=O)c1C
 : -6, -0.9, i, 6, 2.9
O=C(C[C@@H]1C=C[C@@H](NC(=O)c2cccnc2)[C@H](CO)O1)NCCN1CCCCC1
 : 2, 1.3, i, 2, 1.2
C[C@H]1CN([C@@H](C)CO)C(=O)c2cc(N(C)C)ccc2O[C@H]1CN(C)S(=O)(=O)c1ccc(F)cc1
 : 3, -1.6, i, -3, -0.4
C[C@H](CO)N1C[C@H](C)[C@@H](CN(C)Cc2ccccc2C(=O)O)OCc2cnnn2CCCC1=O
 : 10&10, 0.6&-17, i, 11&8, -0.1&2.1
CO[C@@H]1CN(C)C(=O)c2ccc(NC(C)=O)cc2OC[C@@H](C)N(C(=O)c2ccccn2)C[C@H]1C
 : -5, -2.7, i, 1, 0.0
COC(=O)c1c(C)cccc1C1CN=NC12Cc1ccccc1C2=O (stereo not given)
 : -1, 4.9, i, 12, 7.7
COC(=O)[C@@]12C[C@@H](CC(=O)N3CCCCC3)C(=O)N(Cc3ccc4c(c3)OCO4)C1=CCC(C)(C)C2
 : -12, 4.2, i, -2, 3.5
C=C(C1=CCN(S(=O)C(C)(C)C)[C@H]1CCO)c1ccccc1 (stereo not given in full)
 : 0, 2.2, i, 12, 5.1
O=C(C[C@H]1CC[C@H]2[C@@H](COC[C@@H](O)CN2C(=O)c2cccnc2)O1)NCc1ccc(Cl)cc1
 : 2, 0.3, i, 1, 1.7
Cc1noc(C)c1NC(=O)Nc1ccc2c(c1)C(=O)N([C@H](C)CO)C[C@@H](C)[C@@H](CN(C)C(=O)NC(C)C)O2
 : -1, -1.3, i, -3, -2.0
COCCNC(=O)C1(C)CCN(C(=O)Cc2ccc(OC)c(OC)c2)C1 (stereo not given)
 : 17, -1.2, i, 8, 0.1
Cc1ccc(S(=O)(=O)Nc2ccc3c(c2)C(=O)N([C@H](C)CO)C[C@H](C)[C@H](CN(C)C(=O)Nc2ccc(F)cc2)OCCCC[C@H](C)O3)cc1
 : 1, -3.3, i, 1, 0.4
O=C(C[C@@H]1CC[C@H]2[C@@H](COC[C@@H](O)CN2C(=O)c2ccc(F)cc2)O1)N1CCCCC1
 : 7, 0.0, i, 1, -0.1
CCCNC(=O)N1[C@H](C#N)[C@H](c2ccccc2-c2ccc(F)cc2)[C@@H]1CO
 : -24, -0.6, i, -5, -2.4
COCC(=O)N(C)C[C@@H]1Oc2ncc(C#CCC3CCCC3)cc2C(=O)N([C@H](C)CO)C[C@@H]1C
 : 1, -2.1, i, 3, -5.3
C[C@@H]1CCCCO[C@@H](CN(C)S(=O)(=O)c2ccc(Cl)cc2)[C@H](C)CN([C@H](C)CO)C(=O)c2cc(NC(=O)CCCN(C)C)ccc2O1
 : 1, 11, i, -1, 5.7
O=S(=O)(c1cccs1)N1CCCCN2[C@H](CO)[C@@H](c3ccc(Br)cc3)[C@@H]2C1
 : -66, -7.6, i, -47, -3.4
CN=C1NC(C)(C)C2CCC(C)(CC2)S1
 : 7, -3.9, i, 8, 3.3
CCCCN(C)c1c(C)nc2ccc(C(=O)N(CC)CCN(C)C)cn12
 : 12, -1.8, i, 2, -4.0
Cc1ccc(S(=O)(=O)N(C)C[C@@H]2Oc3ccc(NC(=O)C4CC4)cc3CC(=O)N([C@H](C)CO)C[C@H]2C)cc1
 : 1, 0.0, i, -4, -2.7
Cc1noc(C)c1NC(=O)N(C)C[C@H]1Oc2ccc(NC(=O)Nc3ccc4c(c3)OCO4)cc2CC(=O)N([C@H](C)CO)C[C@H]1C
 : 2, -12, i, 0, -2.8
COc1ccc(NC(=O)Cc2ccccc2F)cc1S(=O)(=O)N1CCCCC1
 : -16, 1.0, i, -6, -4.6
Cc1ccc(S(=O)(=O)N(C)C[C@H]2OCCCC[C@H](C)Oc3ccc(NS(=O)(=O)c4cn(C)cn4)cc3C(=O)N([C@@H](C)CO)C[C@@H]2C)cc1
 : 3, 1.1, i, -3, 0.5
C[C@H](CO)N1C[C@H](C)[C@H](CN(C)C)Oc2ccc(NC(=O)CCCN(C)C)cc2C1=O
 : 9, -6.8, i, 6, 1.6
C[C@@H]1CCCCO[C@@H](CN(C)C(=O)NC2CCCCC2)[C@@H](C)CN([C@H](C)CO)C(=O)c2cc(NC(=O)CCC(F)(F)F)ccc2O1
 : 6, 0.9, i, 4, -1.4
CC(C#N)(NC(=O)CN1CCN(S(=O)(=O)c2cc(C(F)(F)F)ccc2Cl)CC1)C1CC1 (stereo not given)
 : -5, -8.5, i, -5, -1.9
CC(=O)N(C)C[C@@H]1Oc2cc(-c3ccc(C#N)cc3)ccc2S(=O)(=O)N([C@@H](C)CO)C[C@H]1C
 : -2, -3.0, i, -2, -5.6
C[C@@H]1CN([C@H](C)CO)C(=O)c2c(c3ccccc3n2C)-c2ccccc2CO[C@@H]1CN(C)C(=O)Nc1ccccc1C(F)(F)F
 : 13&0, -1.6&-8.5, i, 16&1, -5.6&0.3
O=[N+]([O-])c1cccc(COc2ccccc2CN2CCCC2)c1
 : -2, 2.4, i, -14, -6.0
CCCC(=O)Nc1ccc2c(c1)OC[C@@H](C)N(Cc1ccccc1F)C[C@H](C)[C@H](OC)CN(C)C2=O
 : -15, 1.8, i, -5, 13

A different layout for part of the listing above:
CC(=O)N(C)C[C@@H]1Oc2cc(-c3ccc(C#N)cc3)ccc2S(=O)(=O)N([C@@H](C)CO)C[C@H]1C
  Ecoli rRNA inh OD600: -2; MLL AF4-AF9 inh: -3.0; FGF22 binding: i; Ecoli rRNA inh: -2; Ecoli rRNA inh RFP: -5.6

C[C@@H]1CN([C@H](C)CO)C(=O)c2c(c3ccccc3n2C)-c2ccccc2CO[C@@H]1CN(C)C(=O)Nc1ccccc1C(F)(F)F
  Ecoli rRNA inh OD600: 13&0; MLL AF4-AF9 inh: -1.6&-8.5; FGF22 binding: i; Ecoli rRNA inh: 16&1; Ecoli rRNA inh RFP: -5.6&0.3
